# HNF4A DNA FP: change in binding of human HNF4A to DNA, primary screen, biochemical, fluorescence polarization, FITC-DNA. Hepatocyte nuclear factor 4-alpha (Homo sapiens), P41235. 1 h. activity change, % at 10 µM. 360,000 compounds, 0.3% hits. AID 1224865, 2016; in the data active means activity change above about 30%, passing the limit was not always enough;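 further: controls were the assay level and a saturating level of protein; the project sought stronger binding though the title names inhibitors; some compounds called inactive have numbers as strong as hits; positive values seem to mean higher polarization but the record does not say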
# Target sequence (P41235 whole entry, looked up): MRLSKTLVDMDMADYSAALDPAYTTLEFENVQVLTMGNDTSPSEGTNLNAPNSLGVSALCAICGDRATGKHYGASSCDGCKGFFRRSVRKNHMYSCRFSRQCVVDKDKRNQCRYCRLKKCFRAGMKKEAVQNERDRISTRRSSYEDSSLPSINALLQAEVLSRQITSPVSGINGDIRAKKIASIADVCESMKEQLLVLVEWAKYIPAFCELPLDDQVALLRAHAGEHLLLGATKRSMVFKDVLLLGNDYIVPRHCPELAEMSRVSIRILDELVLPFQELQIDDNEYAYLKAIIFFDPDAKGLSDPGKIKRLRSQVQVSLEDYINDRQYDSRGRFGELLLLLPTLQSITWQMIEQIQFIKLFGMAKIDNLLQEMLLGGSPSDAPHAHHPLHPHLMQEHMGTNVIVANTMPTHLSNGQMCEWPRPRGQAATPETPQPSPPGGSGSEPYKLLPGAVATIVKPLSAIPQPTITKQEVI
# FGF22 binding: binders of human FGF22 protein, primary screen, FGF22 synaptogenesis inhibitor project, biophysical, thermal shift, single point. recombinant FGF22 thermal shift, SYPRO orange fluorescence; percent of sucrose octasulfate shift, DMSO zero. calls only at 9.99 µM. 340,000 compounds, 1.5% hits. AID 651658, 2012;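 active means melting point raised past a set limit in the mean and every replicate; three in four hits are not shown here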
# Target sequence (Q9HCT0 whole entry, looked up): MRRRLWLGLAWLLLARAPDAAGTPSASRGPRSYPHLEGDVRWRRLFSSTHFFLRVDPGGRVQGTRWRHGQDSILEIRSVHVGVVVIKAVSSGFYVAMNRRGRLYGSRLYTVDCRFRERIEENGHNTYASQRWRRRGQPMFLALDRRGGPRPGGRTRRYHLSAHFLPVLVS
# Starred values were filed as active, the others as inactive; i = inactive; nt = no result given. Only part of the results is shown; count on the stated rates, not on these rows.
SMILES,HNF4A DNA FP,FGF22 binding
CCc1nc2ccc(C(=O)NCc3cccs3)cn2c1N(CCC(C)C)CCN(C)C,-9.3,i
O=c1cc(-c2ccccc2)nc2c(Cl)cc(Cl)cn12,1.3,i
C[C@@H]1CN([C@H](C)CO)S(=O)(=O)c2ccc(Br)cc2O[C@H]1CN(C)C(=O)Nc1ccc(F)cc1,1.5,i
CCCCCCN1C[C@@H](n2cc(C3CC3)nn2)[C@H](O)C[C@@H]1c1ccccc1,3.1,i
Cc1cccc(C)c1-n1nnnc1C1(C)CCC(=O)N1Cc1ccco1 (stereo unspecified),-5.1,i
COc1cccc(C#Cc2ccc3c(c2)O[C@H](CN(C)S(=O)(=O)c2ccccc2F)[C@H](C)CN([C@H](C)CO)S3(=O)=O)c1,0.9,i
COc1ccc(CNC(=O)C[C@@H]2C=C[C@@H](NS(=O)(=O)c3cccc(OC)c3)[C@@H](CO)O2)cc1,1.8,i
COC(=O)c1ccc2nc(-c3cccc(Cl)c3)c(Cc3ccccc3)n2c1,5.5,i
O=C(COc1ccc2ccc(=O)oc2c1)NCCN1CCOCC1,-2.5,i
C1=C\CCC2(OCCO2)C2(CC/1)OCCO2,1.2,i
O=C(N=C1SC2CS(=O)(=O)CC2N1Cc1ccccc1)c1ccccc1 (stereo unspecified),-0.7,i
COc1ccc(CC(=O)OCC(=O)Nc2ccc3[nH]c(=O)[nH]c3c2)cc1OC,4.8,i
COc1cc(NC(=O)N2CCc3nc(Nc4cc(Cl)cc(Cl)c4)ncc3C2)cc(OC)c1OC,0.3,i
Cc1ccc(-c2ccc(CN3C(CC(C)C)C(=O)N(Cc4cn(CC5CCCCC5)nn4)CCS3(=O)=O)cc2)cc1 (stereo unspecified),0.5,i
CC(C)[C@@H]1CC[C@@H](C)C[C@H]1O,-2.4,i
Cc1ccc2nc(-c3ccc(F)cc3)c(Cc3ccccc3C(F)(F)F)n2c1,11,i
COCc1cn(CC[C@@H]2CC[C@@H](NC(=O)Nc3ccc4c(c3)OCO4)[C@@H](CO)O2)nn1,0.3,i
O=C1c2ccccc2C(c2nnnn2Cc2ccccc2)N1Cc1ccc2c(c1)OCO2 (stereo unspecified),1.6,i
COc1ccc(-c2cc(NC(C)=O)c3ncc(-c4ccc(F)cc4)n3c2)cc1OC,7.7,i
O=C(Nc1cccc(F)c1)Nc1nnc([C@@H]2O[C@H](CO)[C@@H](O)[C@H]2O)s1,2.8,i
Cn1nc(C(C)(C)C)cc1C(=O)N1CCCCC1c1cc(C(=O)Nc2cccc(C#N)c2)no1 (stereo unspecified),0.8,i
CCOC1=C2[C@@H](CN(S(=O)(=O)c3ccc(C)cc3)[C@H]2c2cccc3ccccc23)[C@H]2C(=O)N(CC)C(=O)[C@H]2C1,0.8,nt
CC1(C(=O)Nc2ccc(Cl)c(C(F)(F)F)c2)Cc2c(-c3ccc(C(N)=O)cc3)ccnc2O1 (stereo unspecified),-3.8,i
COc1cc(C=NNC(=S)Nc2ccc(S(=O)(=O)N3CCCCC3)cc2)cc(OC)c1OC,0.6,i
CN(C)c1ccc(-c2cc(NC=O)c3ncc(-c4ccc(F)c(Cl)c4)n3c2)cc1,21,i
C[C@H](CO)N1C[C@H](C)[C@H](CN(C)C(=O)Cc2ccccc2)OCc2cnnn2CCCC1=O,-1.1,i
COc1ccccc1CCC(=O)Nc1ccc2c(c1)c(=O)n(C)n2Cc1ccc(F)cc1,-0.2,nt
COc1ccc(Cl)cc1-c1cc(C(=O)Nc2cc(OC)c(OC)c(OC)c2)[nH]n1,1.1,i
Clc1cccc(Cc2c(-c3cccc(Cl)c3)nc3c4ccccc4ccn23)c1,0.1,i
O=C(N/N=C/c1c(O)ccc2ccccc12)C(=O)N1CCCC1,7.5,i
Cc1cccc(CSCC(=O)N2CCN(S(=O)(=O)c3ccccc3C#N)CC2)c1,-0.7,nt
CC1(C(=O)NS(=O)(=O)c2cccs2)CCN1C(=O)Cc1ccc(-c2ccccc2)cc1 (stereo unspecified),0.9,i
CC1(C(=O)NS(=O)(=O)c2cccc(Cl)c2)CCN1C(=O)COc1ccc(Cl)cc1 (stereo unspecified),-3.2,i
CCc1nc2c(OCc3ccc(C(F)(F)F)cc3)cccn2c1N(C)C(=O)c1ccco1,0.0,i
Nc1ccn([C@@H]2O[C@H](C(=O)N3CCCN(Cc4cccs4)CC3)[C@@H](O)[C@H]2O)c(=O)n1,5.0,i
COc1cccc(NC(=O)N(C)C[C@H]2Oc3cc(Br)ccc3S(=O)(=O)N([C@H](C)CO)C[C@H]2C)c1,9.1,i
FC(F)(F)Oc1ccccc1C(c1nnnn1Cc1ccccc1)N1CCN(C/C=C/c2ccccc2)CC1 (stereo unspecified),-1.1,i
CCc1cnc(Nc2nc(C(N)Cc3ccc(Cl)cc3)cs2)nc1 (stereo unspecified),-2.6,i
COc1ccc(C=NCCc2ccc(OC)c(OC)c2)cc1OC,-6.8,i
CCC(=O)N1CCC1(C)C(=O)Nc1ccc(OC(F)F)cc1 (stereo unspecified),-0.2,i
CC1=C(C(=O)N2CCOCC2)CC(CC(=O)NC2CCCCC2)C(=O)N1Cc1ccc(F)cc1 (stereo unspecified),-3.0,i
CCCOc1ccc(F)cc1-c1cc(C(=O)NCc2ccc(F)cc2)[nH]n1,-2.1,i
Cc1cnc(C(=O)N(c2ccccc2)C(c2ccccc2)c2nc3ccccc3[nH]2)cn1 (stereo unspecified),3.8,i
COC(=O)[C@H](Cc1ccccc1)NC(=O)/C=C/[C@H]1O[C@@H](n2cc(C)c(=O)[nH]c2=O)C[C@@H]1O,-0.7,i
CC(C)C[C@H](NC(=O)c1[nH]cnc1C(=O)Nc1ccccc1F)C(=O)OC(C)(C)C,1.3,i
O=C(NCc1ccncc1)[C@@H]1CCCN1C(=O)[C@@H]1CCCN1,-3.6,i
NC(Cc1ccc(C(F)(F)F)cc1)c1csc(NC(=O)Nc2ccccc2)n1 (stereo unspecified),6.0,i
C[C@@H]1O[C@H](C2CCCC2)Cc2[nH]c(=S)[nH]c(=O)c21,-1.5,i
CCN(CC(=O)Nc1cccc(OC)c1)C(=O)C1CC(=O)N(Cc2ccccc2Cl)C1 (stereo unspecified),-2.2,i
CC(Sc1nc(-c2ccccc2)c(-c2ccccc2)[nH]1)C(=O)NCC1CCCO1 (stereo unspecified),3.0,i
CCCn1c(=S)[nH]c2cc(C(=O)NCc3ccccc3OC)ccc2c1=O,-0.5,i
C=CCOc1ccc(Cl)cc1-c1noc(-c2csc([C@H]3C[C@H](O)[C@@H](CO)O3)n2)n1,1.7,i
CCOC(=O)[C@]12CCCC=C1N(Cc1cccc3ccccc13)C(=O)[C@H](CC(=O)N1CCSCC1)C2,-3.4,i
CC(C)[C@H](NC(=O)OC(C)(C)C)c1cc(C(=O)NCCc2c[nH]c3ccccc23)c(N)s1,18,i
Cc1cc(NC(=O)c2csc([C@@H]3O[C@H](CO)[C@H](O)[C@H](O)[C@H]3O)n2)n(C)n1,-0.1,i
OC[C@@H]1CN(Cc2ccc(-c3ccccc3)cc2)C[C@H](n2cnc3c(N4CCCC4)ncnc32)O1,1.8,i
O=C(O)CCC(C(=O)O)N1C(=O)C2C3CCC(C3)C2C1=O (stereo unspecified),2.5,i
CCCCN1C(=O)C(CC(=O)NCc2ccco2)CC(C(=O)N(C)C)=C1C (stereo unspecified),0.9,i
O=C(NCc1ccccc1)c1cc(C2CCCN(S(=O)(=O)c3cccs3)C2)on1 (stereo unspecified),-0.2,i
CCN(CCCNc1cc2c(c(N)c1S(=O)(=O)O)C(=O)c1ccccc1C2=O)c1ccccc1,-61,i
# The list continues:
SMILES,HNF4A DNA FP,FGF22 binding
C[C@@H]1CCCCO[C@@H](CN(C)Cc2ccc3c(c2)OCO3)[C@@H](C)CN([C@H](C)CO)C(=O)c2cc(NS(=O)(=O)c3ccccc3)ccc2O1,3.5,i
COc1ccc(S(=O)(=O)N2CCCCC2)cc1C(=O)NC1CCS(=O)(=O)C1 (stereo unspecified),1.0,i
O=C(NCC1CCCCC1)c1ccc2nc([C@@H]3O[C@H](CO)[C@@H](O)[C@H]3O)[nH]c2c1,-0.6,i
COc1cccc(-c2cnc(C(O)c3cc(C)ccc3C)[nH]2)c1 (stereo unspecified),0.8,i
CC(C)C[C@@H](COCc1cccc(Cl)c1)N1CCN(C(=O)c2cccc(C(F)(F)F)c2)CCC1=O,-4.6,i
CN1CCN(C(=O)C[C@@H]2C[C@H]3c4cc(NC(=O)c5cccnc5)ccc4O[C@H]3[C@H](CO)O2)CC1,1.1,i
O=C(Nc1ccc([N+](=O)[O-])cc1)OC1CCS(=O)(=O)C1 (stereo unspecified),4.6,i
COc1cccc(-c2nc(Cl)nc3cc(Cl)ccc23)c1,4.7,i
COc1cccc(NC(=O)Nc2nnc(COCCO)s2)c1,0.8,i
CCC(c1nnnn1-c1c(C)cccc1C)N1CCN(C/C=C/c2ccccc2)CC1 (stereo unspecified),1.3,i
Cc1ccc([C@H]2C[C@H](n3cc(COC(=O)c4ccccc4)nn3)[C@@H](O)CN2C(=O)c2cccs2)cc1,4.1,i
Cc1cc2nc(C(C)(C)C)c(CC3CCCCC3)n2c(C)c1Br,4.1,i

# 2 neighbouring entries out of the list so far, quoted:
SMILES,HNF4A DNA FP,FGF22 binding
C[C@@H]1CCCCO[C@@H](CN(C)Cc2ccc3c(c2)OCO3)[C@@H](C)CN([C@H](C)CO)C(=O)c2cc(NS(=O)(=O)c3ccccc3)ccc2O1,3.5,i
COc1ccc(S(=O)(=O)N2CCCCC2)cc1C(=O)NC1CCS(=O)(=O)C1 (stereo unspecified),1.0,i

# For convenience, part of the list above.
SMILES,HNF4A DNA FP,FGF22 binding
CC(Sc1nc(-c2ccccc2)c(-c2ccccc2)[nH]1)C(=O)NCC1CCCO1 (stereo unspecified),3.0,i
CCCn1c(=S)[nH]c2cc(C(=O)NCc3ccccc3OC)ccc2c1=O,-0.5,i
C=CCOc1ccc(Cl)cc1-c1noc(-c2csc([C@H]3C[C@H](O)[C@@H](CO)O3)n2)n1,1.7,i
CCOC(=O)[C@]12CCCC=C1N(Cc1cccc3ccccc13)C(=O)[C@H](CC(=O)N1CCSCC1)C2,-3.4,i
CC(C)[C@H](NC(=O)OC(C)(C)C)c1cc(C(=O)NCCc2c[nH]c3ccccc23)c(N)s1,18,i
Cc1cc(NC(=O)c2csc([C@@H]3O[C@H](CO)[C@H](O)[C@H](O)[C@H]3O)n2)n(C)n1,-0.1,i
OC[C@@H]1CN(Cc2ccc(-c3ccccc3)cc2)C[C@H](n2cnc3c(N4CCCC4)ncnc32)O1,1.8,i
O=C(O)CCC(C(=O)O)N1C(=O)C2C3CCC(C3)C2C1=O (stereo unspecified),2.5,i
CCCCN1C(=O)C(CC(=O)NCc2ccco2)CC(C(=O)N(C)C)=C1C (stereo unspecified),0.9,i
O=C(NCc1ccccc1)c1cc(C2CCCN(S(=O)(=O)c3cccs3)C2)on1 (stereo unspecified),-0.2,i
CCN(CCCNc1cc2c(c(N)c1S(=O)(=O)O)C(=O)c1ccccc1C2=O)c1ccccc1,-61,i
C[C@@H]1CCCCO[C@@H](CN(C)Cc2ccc3c(c2)OCO3)[C@@H](C)CN([C@H](C)CO)C(=O)c2cc(NS(=O)(=O)c3ccccc3)ccc2O1,3.5,i
COc1ccc(S(=O)(=O)N2CCCCC2)cc1C(=O)NC1CCS(=O)(=O)C1 (stereo unspecified),1.0,i
O=C(NCC1CCCCC1)c1ccc2nc([C@@H]3O[C@H](CO)[C@@H](O)[C@H]3O)[nH]c2c1,-0.6,i
COc1cccc(-c2cnc(C(O)c3cc(C)ccc3C)[nH]2)c1 (stereo unspecified),0.8,i
CC(C)C[C@@H](COCc1cccc(Cl)c1)N1CCN(C(=O)c2cccc(C(F)(F)F)c2)CCC1=O,-4.6,i
CN1CCN(C(=O)C[C@@H]2C[C@H]3c4cc(NC(=O)c5cccnc5)ccc4O[C@H]3[C@H](CO)O2)CC1,1.1,i
O=C(Nc1ccc([N+](=O)[O-])cc1)OC1CCS(=O)(=O)C1 (stereo unspecified),4.6,i
COc1cccc(-c2nc(Cl)nc3cc(Cl)ccc23)c1,4.7,i
COc1cccc(NC(=O)Nc2nnc(COCCO)s2)c1,0.8,i
CCC(c1nnnn1-c1c(C)cccc1C)N1CCN(C/C=C/c2ccccc2)CC1 (stereo unspecified),1.3,i

# Next results:
SMILES,HNF4A DNA FP,FGF22 binding
CC1(O)C(c2ccccc2)=Nc2ccccc21 (stereo unspecified),-0.2,i
CN(C)Cc1cc(OCc2ccccc2)cc(CN(C)C)c1O,-0.7,i
C=CCn1c(SCC(=O)N2CCC(C)CC2)nc2c([nH]c3ccccc32)c1=O,4.7,i
O=C(NCc1ccc(F)c(F)c1)c1cccc2c(-c3cccnc3)coc12,0.7,i
Cc1ccc2nc(-c3ccccc3)c(Cc3cccc(F)c3)n2c1,-4.7,i
Cn1c(=O)c2cc(NC(=O)Cc3ccccc3F)ccc2n1Cc1ccc(Cl)cc1,12,i
FC(F)(F)c1cccc(-c2nc3ccccc3n2C(c2ccccc2)c2nc3ccccc3[nH]2)c1 (stereo unspecified),3.7,i
CC(C)(C)NC(=O)CN1C(=O)c2cccc3cccc1c23,3.5,i
CC1=C(C(=O)N(C(C)C)C(C)C)CC(CC(=O)NCc2cccs2)C(=O)N1Cc1ccccc1 (stereo unspecified),-0.6,i
COC(=O)[C@@]12C[C@@H](CC(=O)N3CCCC3)C(=O)N(Cc3ccco3)C1=CCC(C)(C)C2,-0.1,i
CCc1nc2c(OCc3ccc(C(F)(F)F)cc3)cccn2c1N(C)C(=O)CC(C)C,1.1,i

# High-throughput results from PubChem.
